Screens from PubChem BioAssay.
MLL AF4-AF9 inh: MLL-AF4/AF9 protein interaction inhibition. AID 651704. AlphaScreen, biotin-AF4 peptide binding to FLAG-AF9. P42568. actives 0.47% (n = 350,000). inhibition, % at 10 µM;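 active = every replicate reaching a set inhibition limit, whatever the replicate mean, cut at about 25% in these data; inconclusive = mean inhibition reaches that limit but some replicates miss it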;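 note: 0% = plate neutral control median and 100% = total signal loss; the record names both 10 and 1 µM as test concentration; the first replicate is given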
Target sequence (P42568 whole entry, looked up): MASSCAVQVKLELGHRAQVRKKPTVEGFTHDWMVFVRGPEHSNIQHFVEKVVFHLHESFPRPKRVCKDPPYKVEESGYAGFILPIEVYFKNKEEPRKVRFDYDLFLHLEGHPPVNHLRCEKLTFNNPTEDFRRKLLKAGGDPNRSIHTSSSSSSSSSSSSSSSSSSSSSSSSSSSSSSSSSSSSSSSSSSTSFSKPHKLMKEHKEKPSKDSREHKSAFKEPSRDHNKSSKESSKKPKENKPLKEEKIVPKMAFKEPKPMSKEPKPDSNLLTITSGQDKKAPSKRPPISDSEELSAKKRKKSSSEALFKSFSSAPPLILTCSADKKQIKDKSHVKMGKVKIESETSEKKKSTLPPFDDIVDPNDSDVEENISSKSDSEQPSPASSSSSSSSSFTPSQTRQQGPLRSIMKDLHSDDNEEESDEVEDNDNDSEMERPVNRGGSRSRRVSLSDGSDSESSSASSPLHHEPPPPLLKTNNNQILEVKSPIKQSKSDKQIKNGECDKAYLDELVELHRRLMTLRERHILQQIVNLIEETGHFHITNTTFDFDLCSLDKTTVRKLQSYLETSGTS
ALR inh: blocks human ALR sulfhydryl oxidase activity | P55789 | purified ALR, DTT oxidation, H2O2 HRP-luminol luminescence | inhibition, % (concentration not given with the values) | actives 3.8% (n = 290,000);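 active = mean and each replicate at 75% or more; inconclusive = only one of the two met; inactive = neither met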;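 note: stock transfer was 7.5 nL into about 7.5 µL; 0% = neutral wells and 100% = wells with inactivated enzyme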
Target sequence (P55789 whole entry, looked up): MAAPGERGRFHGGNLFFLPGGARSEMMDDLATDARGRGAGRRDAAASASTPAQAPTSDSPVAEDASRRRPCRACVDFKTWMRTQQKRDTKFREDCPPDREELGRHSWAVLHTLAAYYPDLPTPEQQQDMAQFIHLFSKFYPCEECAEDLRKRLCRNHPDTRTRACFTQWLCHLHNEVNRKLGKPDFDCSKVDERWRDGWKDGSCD
Ecoli growth: E. coli growth inhibition; Escherichia coli growth, OD600, 23 h; stronger effect = lower value; OD600 absorbance (test concentration not listed); actives 0.21% (n = 330,000); AID 1053175;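 active = OD600 absorbance below the run mean of sample wells minus 3.6 SD, in any replicate, cut at about 0.56 in these data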;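 note: stock transfer was 300 nL into about 60 µL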
FGF22 binding: FGF22 (human) thermal shift binding; recombinant FGF22 thermal shift, SYPRO orange fluorescence; percent of sucrose octasulfate shift, DMSO zero; calls only at 9.99 µM; actives 1.5% (n = 340,000);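 active = melting point raised past a set limit in the mean and every replicate; inconclusive = no clear call; three in four hits are not shown here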
Target sequence (Q9HCT0 whole entry, looked up): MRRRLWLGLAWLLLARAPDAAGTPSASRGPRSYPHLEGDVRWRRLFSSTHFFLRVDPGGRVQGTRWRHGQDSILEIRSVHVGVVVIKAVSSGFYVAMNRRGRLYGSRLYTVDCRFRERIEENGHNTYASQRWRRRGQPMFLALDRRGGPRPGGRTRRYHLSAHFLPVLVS
rRNA inh HTS: inhibitors of bacterial rRNA selective over humanized ribosomes; E. coli WT GFP vs humanized-ribosome RFP mutants, fluorescence, 24 h; stronger effect = lower value; DMSO median 0, no signal -100; GFP signal change (wild-type ribosome), % (no concentration beside the values); actives 1.6% (n = 350,000); AID 720706;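 active = significant combined selectivity score with lowered wild-type GFP, culture density cut under 30%, mutant RFP and density less affected; inactive = any of these conditions unmet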; note: one replicate is shown; some compounds called inactive have numbers as strong as hits
Vif A3G: inhibitors of Vif binding to APOBEC3G peptide, primary screen, biochemical, TR-FRET, GST-Vif 1-94, biotin-A3G peptide, dose response retest (AID 1117319); TR-FRET GST-Vif / biotin-A3G peptide binding; higher % means a stronger effect; test concentration not given here; strong numbers were not always called active; inhibition, %; hits with a dose series show IC50 in µM; actives 0.57% (n = 260,000);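 active = above the screen mean plus three standard deviations and confirmed in dose response; inconclusive = results disagree or hit not tested in dose response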;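 note: Vif residues 1-94 fused to GST binding biotinylated APOBEC3G peptide 110-148; 0% = full assay without inhibitor and 100% = GST in place of GST-Vif; retest series ran down from 100 µM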
HNF4A DNA FP: change in binding of human HNF4 alpha to DNA | P41235 | HNF4a-FITC DNA binding, fluorescence polarization, 1 h | activity change, % at 10 µM | actives 0.3% (n = 360,000); in the data active = activity change above about 30%, passing the limit was not always enough;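 note: controls were the assay level and a saturating level of protein; the project sought stronger binding though the title names inhibitors; some compounds called inactive have numbers as strong as hits; positive values seem to mean higher polarization but the record does not say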
rRNA inh HTS OD600: also measured in rRNA inh HTS; calls as there; OD600 change, %; measured here: OD600 growth;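 optical density of the mix in the first replicate; 0 = DMSO median and -100 = no signal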
rRNA inh HTS RFP: further read-out of rRNA inh HTS, marked with its call; RFP signal change, %; measured here: RFP humanized mutant strains;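 first replicate; 0 = DMSO median and -100 = no signal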
An asterisk follows results filed as active; i = inactive; ? = inconclusive; nt = no result given; & = joins results of further samples.

Structure	Vif A3G	ALR inh	FGF22 binding	MLL AF4-AF9 inh	HNF4A DNA FP	rRNA inh HTS RFP	rRNA inh HTS	Ecoli growth	rRNA inh HTS OD600
CCN(CC)C(=O)c1ccc(NC(=O)CNC(C)c2cccc3ccccc23)cc1 (stereo unspecified)	-6.1%	-8.9	i	-2.5	0.1	7.7	0.0	0.642	-22.5
COc1ccccc1N1CCN(Cc2cc(C)c(C)cc2O)CC1	0.3%	39.5	nt	nt	-1.9	-9.2	-25.0	0.683	-36.7
COc1ccccc1OCCCn1cc(C=O)c2ccccc21	nt	-12.2	i	-2.4	0.1	2.3	-18.1	0.729	-15.3
COC(=O)C1=C(c2ccc(-c3ccccc3)c(F)c2)C[C@@H]2CC[C@H]1N2C(=O)NC1CCCCC1	nt	4.4	i	6.0	0.7	-5.7	5.8	nt	10.8
c1csc(CN2CCNCC2)c1	-4.0%	-1.5	i	-2.6	-2.4	1.0	9.6	0.683	9.2
COc1ccc(CC2(CCc3ccncc3)C(=O)NC(=O)NC2=O)c(OC)c1	nt	-0.8	i	-1.1	-5.6	1.2	-1.4	0.732	-1.4
CC(C)(C)n1c(O)c(C=Nc2ccc3c(c2)CCC3)c(=O)[nH]c1=O	-6.8%	-5.9	nt	nt	1.3	nt	nt	0.669	nt
O=c1c2ccccc2nc(-c2ccoc2)n1-c1ccccc1Cl	-4.0%	-7.5	nt	nt	1.5	nt	nt	0.719	nt
CCC(=NC1CC1)c1c(O)n(C2CCCCC2)c(=O)[nH]c1=O	-8.4%	6.2	nt	nt	5.2	nt	nt	0.704	nt
CSc1ccc(CN2CCN(C(=O)Cc3ccccc3)CC2)cc1	nt	-1.8	i	-6.8	-0.6	1.4	-0.3	0.655	-5.6
Cc1ccc(-c2nc3ccccc3c(=O)n2-c2cccnc2)cc1	-3.1%	-15.3	i	1.7	1.9	0.5	3.2	0.717	-1.9
Cc1ccc(N)c(C)c1	nt	-0.4	i	nt	3.3	0.4	3.5	0.668	1.3
CC1(C)C[C@H]2C=C(C=O)[C@]3(C=O)C[C@]3(C)[C@H]2C1	21.2%	-2.3	i	-1.0	-4.0	nt	nt	nt	nt
COc1ccc2c3c1OC1[C@H](O)CCC4[C@@H](C2)N(C)CC[C@]314 (stereo partly specified)	nt	nt	i	nt	1.6	2.6	11.9	0.739	10.7
Cc1cc(NC(=O)COC(=O)c2c(C)nn(Cc3ccccc3Cl)c2C)no1	0.2%	-4.9	nt	nt	1.4	nt	nt	0.7	nt
C[C@@H]1CN([C@H](C)CO)C(=O)CCCn2cc(nn2)CO[C@H]1CN(C)C(=O)Oc1cccc2ccccc12	1.0%	nt	i	0.5&1.3	5.3	-1.3	-0.5	nt	-3.9
CN(C)P(=O)(NC(=O)c1cccn1C)N(C)C	0.9%	nt	i	-0.6	-3.0	-6.3	12.4	0.631	12.2
COC(=O)C1=C(c2ccc(OC)c(OC)c2)C[C@@H]2CC[C@H]1N2C(=O)N1CCOCC1	nt	-4.4	i	-2.4	2.1	-11.9	-1.3	nt	3.6
COc1ccc(CCNCc2ccc(OC)c(OC)c2OC)cc1	17.6%	-10.8	i	2.5	2.7	-7.6	5.4	0.708	-1.4
C/C=C1/CN2[C@@H]3C4CO[C@@H]3c3c([nH]c5cc(OC)ccc35)[C@@H]2CC14 (stereo partly specified)	nt	-17.6	i	-1.9	-0.6	3.5	4.6	0.753	13.8
COc1cc2c3cc1Oc1cc(ccc1O)C[C@@H]1c4c(cc(OC)c(O)c4Oc4ccc(cc4)C[C@H]3N(C)CC2)CCN1C	28.7%	23.1	i	?	8.4	6.6	9.7	nt	15.3
Nc1ccc(C2(c3ccc(N)cc3)c3ccccc3-c3ccccc32)cc1	-4.1%	7.7	i	-2.1	3.1	-0.5	7.3	0.693	8.3
COc1cc(CN2CC=C(c3ccc(F)cc3)CC2)cc(OC)c1	nt	-2.1	i	8.8	-1.6	-0.8	-17.8	0.654	-14.5
O=C1c2ccccc2C2(c3ccc(Cl)cc3)NCCN12 (stereo unspecified)	-3.8%	-2.5	nt	nt	-0.2	nt	nt	0.707	nt
O=C(Nc1cccc(OC(=O)N2CCOCC2)c1)N1CCOCC1	-0.1%	nt	nt	nt	-2.2	nt	nt	0.762	nt
CN1CCN(c2ccc(C(F)(F)F)cc2N)CC1	11.1%	-4.1	i	1.2	3.0	5.8	25.3	0.683	24.0
COc1ccccc1-n1c(O)c(/C=N/N2CCCCC2)c(=O)n(-c2ccccc2OC)c1=S	?	nt	i	-5.3	-0.6	-0.3	15.3	0.704	8.7
CCC1C2CC3C4N(C)c5ccccc5C45CC(C2C5O)N3C1O (stereo unspecified)	nt	nt	i	0.9	3.0	3.2	6.6	0.67	1.4
O=C1NC(=O)N(CCC2=CCCCC2)C(=O)/C1=C/c1ccc(O)cc1	nt	nt	i	-2.1	0.3	4.0	8.3	0.73	2.0
Cn1cc[n+](C)c1P(=S)(c1ccccc1)c1ccccc1	13.8%	-4.6	i	-3.1	2.3	0.8	25.8	0.664	11.7

Random excerpt: 5 records from the list.
Structure	Vif A3G	ALR inh	FGF22 binding	MLL AF4-AF9 inh	HNF4A DNA FP	rRNA inh HTS RFP	rRNA inh HTS	Ecoli growth	rRNA inh HTS OD600
CCN(CC)C(=O)c1ccc(NC(=O)CNC(C)c2cccc3ccccc23)cc1 (stereo unspecified)	-6.1%	-8.9	i	-2.5	0.1	7.7	0.0	0.642	-22.5
CC(C)(C)n1c(O)c(C=Nc2ccc3c(c2)CCC3)c(=O)[nH]c1=O	-6.8%	-5.9	nt	nt	1.3	nt	nt	0.669	nt
COc1cc(CN2CC=C(c3ccc(F)cc3)CC2)cc(OC)c1	nt	-2.1	i	8.8	-1.6	-0.8	-17.8	0.654	-14.5
O=C1c2ccccc2C2(c3ccc(Cl)cc3)NCCN12 (stereo unspecified)	-3.8%	-2.5	nt	nt	-0.2	nt	nt	0.707	nt
CCC(=NC1CC1)c1c(O)n(C2CCCCC2)c(=O)[nH]c1=O	-8.4%	6.2	nt	nt	5.2	nt	nt	0.704	nt

(next part)
Structure	Vif A3G	ALR inh	FGF22 binding	MLL AF4-AF9 inh	HNF4A DNA FP	rRNA inh HTS RFP	rRNA inh HTS	Ecoli growth	rRNA inh HTS OD600
CCOc1cc(CNC(C)C(O)c2ccccc2)cc(Cl)c1OCC (stereo unspecified)	-0.9%	-4.7	nt	nt	-1.7	nt	nt	0.686	nt
CC1C(c2ccccc2)OC(=O)N1C (stereo unspecified)	-4.1%	nt	i	-2.6	-0.3	-3.0	5.3	0.716	5.0
COC(=O)C1=C(c2cccc(C#N)c2)C[C@@H]2CC[C@H]1N2C(=O)NC(C)C	nt	1.3	i	-1.8	-0.6	-4.1	17.6	nt	17.8
O=C(c1ccccc1)N1CCC2(CC1)OCCO2	nt	1.2	i	7.0	0.9	0.1	11.9	0.636	-4.2
Fc1ccc(C2N3CCCN23)cc1 (stereo unspecified)	6.2%	1.5	i	-1.2	3.0	1.6	10.2	0.603	-5.1
O=P(Oc1ccc(-c2ccccc2)cc1)(N1CC1)N1CC1	-2.5%	nt	i	5.0	2.9	nt	nt	0.671	nt
Cc1ccccc1NC(=NCCCN1CC1)Nc1ccccc1C	nt	nt	i	77.8*	174.0	nt	nt	nt	nt
O=C1/C(=C\c2ccncc2)N2CCC1CC2	-3.7%	-20.6	i	0.5	-0.2	-1.8	1.4	0.67	-4.0
O=c1cccc2n1CC1CNC[C@H]2C1	nt	-7.2	i	-2.8	-3.3	4.4	-0.5	nt	5.7
CNC(=O)C[C@H]1CC[C@@H]2NC[C@H](O)COC[C@H]2O1	nt	nt	i	-1.8	3.0	-0.8	10.0	nt	11.5
COC(=O)[C@@H]1[C@@H](CO)[C@@H]2Cn3c(ccc(/C=C/c4ccccc4)c3=O)[C@H]1N2C(=O)C1CC1	nt	nt	i	-8.5	nt	0.5	-7.2	nt	-4.3
CCC1(CC)COP(=O)(OCC(Cl)CCl)OC1 (stereo unspecified)	-1.8%	nt	i	-4.3	13.1	3.8	10.8	0.729	6.6
COc1ccc(-n2c(O)c(C=NCCN3CCN(C(C)=O)CC3)c(=O)[nH]c2=S)cc1	nt	3.1	i	-9.1	-1.2	5.7	24.5	0.695	24.6
CCCCOC(=O)C1=C(N)OC2=C(C(=O)CC(C)(C)C2)[C@]12C(=O)N(C)c1ccccc12	1.4%	-1.5	nt	nt	-0.3	nt	nt	0.788	nt
COc1cccc(C(=O)C2CCCN(Cc3ccccn3)C2)c1 (stereo unspecified)	-15.3%	-19.4	i	2.1	2.3	1.2	5.6	0.679	0.8
CC(C)N(CC#CCC1(O)c2ccccc2-c2ccccc21)C(C)C	nt	-3.5	nt	nt	0.7	nt	nt	0.664	nt
COc1ccc(OC(=O)N(C)C[C@@H]2OCc3ccccc3-c3c(n(C)c4ccccc34)C(=O)N([C@H](C)CO)C[C@@H]2C)cc1	nt	nt	i	3.8	3.5	-1.3&-0.9	3.6&0.2	nt	4.4&0.0
Cc1ccc(N2C(=O)NC(=O)C3(Cc4ccccc4N4CCCC43)C2=O)cc1 (stereo unspecified)	23.3%	-51.7	nt	nt	2.5	nt	nt	0.715	nt
O=C1NCN(c2ccccc2)C12CCN(C(c1cccs1)c1nnnn1-c1ccc3c(c1)OCCO3)CC2 (stereo unspecified)	nt	nt	i	-2.5	-4.8	9.4	-5.8	nt	-2.8
c1cc2c(cc1CCNC1C3CC4CC(C3)CC1C4)OCO2 (stereo unspecified)	-3.6%	-3.9	nt	nt	-0.8	nt	nt	0.668	nt
COC(=O)[C@H]1[C@H](CO)[C@H]2Cn3c(ccc(C4=CCCCC4)c3=O)[C@@H]1N2C(=O)CC1CC1	nt	nt	i	1.4	nt	-3.4	0.2	nt	-3.3
O=C(CCCN1CCC(n2c(=O)[nH]c3ccccc32)CC1)c1ccc(F)cc1	nt	3.6	i	0.5	5.0	nt	nt	0.664	nt
CN1OCC2Cn3c(nc4ccccc43)C21 (stereo unspecified)	8.5%	0.5	i	1.1	3.4	-6.8	1.4	0.661	6.6
COc1cc2c(cc1/C=C/[N+](=O)[O-])OCO2	17.0%	nt	i	5.3	5.5	0.3	-10.8	0.669	6.1
CCOC(=O)[C@]12Cc3cc(OC)ccc3[C@H]1N(C(C)C)C(=O)c1cc(OC)ccc12	nt	nt	i	-5.5	-7.8	-16.8	-44.3	nt	-79.0
NN=C1C(Cl)=C(Cl)C(Cl)=C1Cl	10.6µM*	nt	i	0.8	-14.4	-9.1	-5.9	nt	22.5

Part of the list above in order of SMILES length, lowest first.
Structure	Vif A3G	ALR inh	FGF22 binding	MLL AF4-AF9 inh	HNF4A DNA FP	rRNA inh HTS RFP	rRNA inh HTS	Ecoli growth	rRNA inh HTS OD600
NN=C1C(Cl)=C(Cl)C(Cl)=C1Cl	10.6µM*	nt	i	0.8	-14.4	-9.1	-5.9	nt	22.5
CCC1C2CC3C4N(C)c5ccccc5C45CC(C2C5O)N3C1O (stereo unspecified)	nt	nt	i	0.9	3.0	3.2	6.6	0.67	1.4
C/C=C1/CN2[C@@H]3C4CO[C@@H]3c3c([nH]c5cc(OC)ccc35)[C@@H]2CC14 (stereo partly specified)	nt	-17.6	i	-1.9	-0.6	3.5	4.6	0.753	13.8

Only part of the results is shown, so the mix of outcomes need not match the whole.
